Assay outcomes: PubChem, ICCB-Longwood Screening Facility, Harvard Medical School
CapD inh – inhibitors of Bacillus anthracis CapD enzyme; purified CapD enzyme, fluorescence intensity read-out; active compounds read low; some hits fall short of the stated cut; 0.23% of 140,000 active; z-score (no concentration beside the values); AID 492967;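 active = z-score under -4 in either of two replicates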;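 also: stock transfer was 100 nL into about 40 µL; score is relative to mean and spread of the plate; one replicate is shown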
AID504770 – E. coli YBA685 growth inhibition, screen for V. cholerae RctB inhibitors; z-score (test concentration not listed); 0.27% of 130,000 active; AID 504770; E. coli YBA685 rctB-dependent plasmid, OD600 growth, 3 h; active compounds read low;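 active = z-score under -2 on both plates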;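 also: wells of about 30 µL received 100 nL stock; score is relative to mean and SD of the test wells; the first replicate is given; strong numbers were not always called active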
Numbers without * were called inactive; · = not tested or not shown.

SMILES | CapD inh | AID504770
C=CCC1C=C(C)CC(CC=C)N1CC(O)C(F)(F)C(F)(F)C(F)(F)F (centres undefined) | 0.575 | 0.35
CC(=O)N(CC(C)C(=O)O)c1c(I)cc(I)c(N)c1I (centres undefined) | -0.285 | ·
COc1cccc(Cn2c(SCc3ccc(C(=O)NC4CCCC4)cc3)nc3ccncc32)c1 | 5.13 | 1.55
ONC1=NCCCCC1 | · | -0.95
COC(=O)C(NC(=O)c1cccc(Cl)c1)(Nc1sc2c(c1C#N)CCC(C)C2)C(F)(F)F (centres undefined) | -0.58 | ·
O=C(O)CC(CC(=O)N1CCN(c2ncccn2)CC1)c1ccccc1 (centres undefined) | 3.37 | 0
CCOc1ccc(N(C)S(=O)(=O)c2ccc3[nH]cc(C(=O)N4CCN(Cc5ccccc5)CC4)c(=O)c3c2)cc1 | 1.33 | ·
O=S(=O)(NCCc1ccccn1)C1=Cc2ccccc2CC1 | · | -0.3
C=CCn1c(SCC(=O)NCCc2ccccc2)nc2sc3c(c2c1=O)CCCC3 | -0.285 | 1.3
CC1CCCCC1NC(=O)NC(=O)Cn1cc(Br)ccc1=O (centres undefined) | · | 0.5
COc1cc(C(=O)N=Nc2c(O)[nH]c3ccc(Br)cc23)cc(OC)c1OC | 0.575 | ·
O=C(Nc1ccccc1)Nc1ccc2c(c1)OCO2 | 0.115 | -0.65
N/C(=N/O)C1COc2ccccc2O1 (centres undefined) | -0.28 | 0.6
CCn1c(CSC/C=C/c2ccccc2)nc2cc(S(=O)(=O)N3CCOCC3)ccc21 | · | -0.15
CNC(=O)c1ccc(-c2nn(C)c(=O)c3ccccc23)cc1 | -0.085 | 1.5
CC1CCC2(CC1)NC(=O)N(CN1CCCC1)C2=O (centres undefined) | · | -0.4
Cc1ccc(S(=O)(=O)Nc2ccc3oc4c(c3c2)C(=O)CCC4)cc1 | -0.415 | ·
CCOC(=O)C1C2c3ccccc3O[C@]1(C)N=c1s/c(=C/c3ccc(OC)cc3)c(=O)n12 (some centres undefined) | -1.09 | -0.15
O=C(CC(=O)N1CC2CC(C1)c1cccc(=O)n1C2)c1ccccc1 (centres undefined) | · | -1.05
Cc1ccc(-c2nnc(OCc3cccnc3)c3ccccc23)cc1 | -0.315 | -0.5
O=C(O)CNC(=O)CSc1ccccc1 | -0.485 | 0.2
O=C(N/N=C/c1ccnc2ccccc12)c1ccccc1Oc1ccccc1 | 1.54 | ·
O=C(N/N=C/c1ccc2ccccc2n1)c1ccccc1Oc1ccccc1 | -1.11 | ·
c1ccc(-c2cc(CSc3nc4ccccc4[nH]3)on2)cc1 | 1.71 | -0.9

Another view of some results above.
mol,CapD inh,AID504770
O=C(O)CNC(=O)CSc1ccccc1,-0.485,0.2
O=C(N/N=C/c1ccc2ccccc2n1)c1ccccc1Oc1ccccc1,-1.11,·
CCn1c(CSC/C=C/c2ccccc2)nc2cc(S(=O)(=O)N3CCOCC3)ccc21,·,-0.15
c1ccc(-c2cc(CSc3nc4ccccc4[nH]3)on2)cc1,1.71,-0.9

Continuation:
SMILES | CapD inh | AID504770
CS(=O)(=O)N1CCCC(C(=O)N2CCCCC2)C1 (centres undefined) | 0.22 | 0
Clc1ccc(Nc2nc3nonc3nc2NCCc2ccccc2)cc1 | -1.11 | ·
O=C1c2ccccc2C(=O)N1Cc1ccc(C2Nc3ccccc3-c3cccn32)o1 (centres undefined) | 1.1 | -0.05
COc1cccc(-c2nn(C)c3sc(C(=O)N4CCOCC4)cc23)c1 | -0.21 | 0.25
O=C1CCCC(=O)C1Sc1ccc(Cl)cc1 | -0.16 | -0.3
COC(=O)C1C(=O)NC(SCC(=O)Nc2cccc(OC)c2)=C(C#N)C1c1ccc(OC)cc1 (centres undefined) | 0.275 | -0.4
O=C(c1ccco1)N(Cc1ccccc1)c1nc2c(F)cc(F)cc2s1 | · | -0.85
Cc1ccc(C(=O)N/C(=C\c2ccco2)C(=O)NCCCn2ccnc2)cc1 | -0.495 | ·
Cc1ccnc(N/C=C(/NC(=O)c2ccccc2)C(=O)N/N=C\c2ccccc2)n1 | -2.71 | ·
CCOC(=O)CCN1C(=O)/C(=C/c2ccccc2OC)SC1=S | 0.11 | 0.45
O=C1/C(=C/c2ccco2)SC(=S)N1CN1CCN(c2ccccc2)CC1 | -3.04 | 0.25
CC1=CC(C)=NC2=C(c3ccccc3)SC(=C3C(=O)c4ccccc4C3=O)N12 | · | -0.15
O=C1CC(Sc2ccccc2)C(=O)N1c1ccccc1 (centres undefined) | · | 0.65
COc1cc(C(=O)OC2CC3CCC(C2)N3)ccc1O (centres undefined) | 0.085 | -1
O=C(c1ccc(S(=O)(=O)N2CCCCC2)cc1)N1CCN(c2cccc(Cl)c2)CC1 | -0.77 | -1.7
N#CCC(=O)N/N=C/c1ccccc1 | · | -0.85
CC(C)S(=O)(=O)c1cscc1NS(=O)(=O)c1ccc(Cl)cc1 | -0.035 | 0.7
O=C1/C(=C/c2ccc(-c3ccc(Br)cc3)o2)C=C(c2ccccc2)N1c1ccccc1 | -1.13 | ·
O=C1c2ccccc2C(=O)N1/N=C/c1ccc(OC(F)F)cc1 | · | -0.65
Cc1ccc2c(c1)c1c(n2CC(O)CNCc2ccccc2)CCCC1 (centres undefined) | 29.3 | -1.45
CN(C)C(=O)C(CCN1CCC(O)(c2ccccc2)CC1)(c1ccccc1)c1ccccc1 | 0.56 | 0.55
COC(=O)c1ccc2c(=O)n(Nc3nc(C)cc(C)n3)c(SCc3cc(C(C)=O)ccc3OC)nc2c1 | -0.36 | ·
COc1cc(-c2nc(C=Nc3cc(Cl)ccc3C)c(O)o2)cc(OC)c1OC | -0.52 | ·
COc1ccc(OCC(O)CNC(=O)c2cccs2)cc1 (centres undefined) | 0.2 | 0.9

Record cards, from the list above:
`O=C1c2ccccc2C(=O)N1/N=C/c1ccc(OC(F)F)cc1` is listed as CapD inh = ·; AID504770 = -0.65
`CCOC(=O)CCN1C(=O)/C(=C/c2ccccc2OC)SC1=S` is listed as CapD inh = 0.11; AID504770 = 0.45

Remaining list, next part:
SMILES | CapD inh | AID504770
CCCN(CC(=O)c1cc(C)n(C)c1C)S(=O)(=O)c1cccc(C(F)(F)F)c1 | · | -0.65
CN(C)C(=O)CN(c1ccccc1)S(=O)(=O)c1ccc(Cl)cc1 | -0.33 | ·
CO[C@@H]1[C@H](OC(N)=O)C(O)[C@H](Oc2ccc3c(O)c(NC(=O)c4ccc(O)c(CC=C(C)C)c4)c(=O)oc3c2C)OC1(C)C (some centres undefined) | -0.275 | ·
CC(C)N(C(=O)CSc1nc2c([nH]1)c(=O)n(C)c(=O)n2C)c1ccccc1 | 1.56 | ·
O=C(Nc1ccccc1)Nc1ccc(I)cn1 | 0.075 | -0.55
CCOC(=O)c1c(-c2ccc(OC)cc2)csc1NC(=O)CSc1nnc2ccccn12 | 0.075 | -0.25
CC12C(=O)N(c3ccc(Br)cc3)C(=O)C1ON(c1ccccc1)C2c1ccccc1O (centres undefined) | -0.415 | -0.25
CCN(Cc1ccccc1)C(=O)CSc1nccc(=O)[nH]1 | · | -0.05
O=C1CCCN1Cc1cc(Cl)c2cccnc2c1O | -0.475 | 0.4
CCOC(=O)CSc1cc(C)nc(SCC(=O)OCC)n1 | · | 2.2
Cc1nn2c(c1-c1ccccc1)NC1=C(C(=O)CCC1)C2c1cccnc1 (centres undefined) | · | 0.65
CCOc1ccc(C(=O)N2CCN(Cc3ccc4c(c3)c3ccccc3n4CC)CC2)cc1OCC | 6.46 | ·
Cc1cccc(NC(=O)c2ccccc2C(=O)O)c1 | -0.19 | -1.2
CC(C)CC(C(=O)O)N1C(=O)c2ccccc2C1=O (centres undefined) | -0.325 | -1.9
CC(=O)Nc1cc([N+](=O)[O-])ccc1-n1cc(C)c(C(F)(F)F)n1 | 0.195 | ·
CN(C)C(=O)c1ccc(COc2ccccc2Br)o1 | 0.285 | 0.15
COc1cccc(C(=O)Nc2ccc3nc(SC)sc3c2)c1 | -0.875 | -0.9
O=C(c1ccccc1)N1CCCCC(Sc2nnnn2-c2ccccc2)C1=O (centres undefined) | · | 0.5
CC(C)C(NS(=O)(=O)c1ccc2c3c(cccc13)C(=O)N2C)C(=O)O (centres undefined) | 0.79 | -0.65
Cn1c2c(c(=O)n(C)c1=O)C(c1cc([N+](=O)[O-])c(N3CCOCC3)cc1N1CCOCC1)O2 (centres undefined) | -0.355 | ·
Cc1ccc(CSc2nnc(-c3ccc(C)cc3)n2N)cc1 | · | -0.1
CCCCC1(Cc2ccccc2)C(=O)Nc2ccccc2C1=O (centres undefined) | 5.85 | 2.25
CSc1cccc(NC(=O)CSc2ccc(C(F)(F)F)cn2)c1 | -0.715 | -0.1
CCCCC(CC)CNc1nc(=S)[nH]c2ccccc12 (centres undefined) | 2.5 | 1.35
Cc1ccc(CS(=O)(=O)CCC(=O)NCC2CCCO2)cc1 (centres undefined) | · | -0.4
CCCSc1nc(O)c(CC)c(=O)n1C(C)CC (centres undefined) | 0.335 | -0.4
Fc1ccc(SCSc2ccccc2)cc1 | -0.485 | 2.35
Cc1cccc(-n2nc3c(c2NC(=O)c2c(F)cccc2Cl)CS(=O)(=O)C3)c1C | 0.18 | -0.6
CCOc1ccsc1C(=O)NNC(=O)OCCN1CCNC1=S | 0.595 | ·
O=C(NCCN1CCOCC1)c1cc(-c2ccncc2)nc2ccccc12 | 0.15 | -0.6
CCOC(=O)C1=C(C)N=c2s/c(=C/c3cc([N+](=O)[O-])ccc3O)c(=O)n2C1c1ccc(SC)cc1 (centres undefined) | 0.285 | ·
CCc1ccc(NC(=O)CSc2ncc(S(=O)(=O)c3ccc(C(C)C)cc3)c(N)n2)cc1 | -0.22 | -0.15
CCC1(C)Cc2ccccc2/C(=C/C(=O)N2CCCCC2)N1 (centres undefined) | · | 2.25
CC1=C(C(=O)Nc2ccc(Cl)cc2)CCC(=O)N1Cc1ccccc1 | -0.42 | ·
CCCS(=O)(=O)c1c(S(=O)(=O)CCC)c2c(N)cccn2c1C(=O)c1ccc(OC)cc1 | -0.525 | ·
Cc1ccc(CNC(=O)C(C)n2nc(C)c3ccccc32)cc1 (centres undefined) | -0.04 | -0.3
CC(=O)C1=NN(c2ccc(Cl)cc2)C(c2ccc3c(c2)OCO3)N1C(C)(C)C (centres undefined) | 0.725 | ·
CC(C)(C)C(N)Cn1ccnc1 (centres undefined) | 1.07 | 0.35
CCOC(=O)c1c(C)oc2ccc(N(C(=O)c3ccccc3)S(=O)(=O)c3ccc(C)cc3)cc12 | -0.115 | ·
CCN(CC(=O)Nc1ccccc1C(=O)c1ccccc1)CC(=O)NC1CCS(=O)(=O)C1 (centres undefined) | · | 0.15
CS(=O)(=O)N1CCC(C(=O)NCCN2CCN(Cc3ccccc3)CC2)CC1 | -0.29 | 0.95
CCOc1ccc(CN2CCN(CC(O)Cn3c4ccccc4c4ccccc43)CC2)cc1 (centres undefined) | 4.86 | ·
Cc1ccc(-c2[nH]ncc2Sc2ccc(C(F)(F)F)cn2)cc1 | 0.05 | 0
Cc1sc2c(c1C)c(=O)n(-c1ccccc1)c1n[nH]c(=S)n21 | -0.315 | ·
CN(CCC#N)S(=O)(=O)c1ccc2[nH]cc(C(=O)N(Cc3ccco3)CC3CCCO3)c(=O)c2c1 (centres undefined) | 6.01 | 0.15
Nc1ccccc1-c1nc(-c2ccc(Cl)cc2)no1 | 19.7 | 0.5
CCOC(=O)c1sc2nc(SCC(=O)NCc3ccco3)n(CCc3ccccc3)c(=O)c2c1C | -0.275 | ·
Cc1[nH]c2ccccc2c1C1=CCN(S(=O)(=O)Cc2ccccc2)CC1 | -1.5 | 2.7
COc1cccc(C2=NN3C(C2)c2cc(Cl)ccc2OC3c2cc(OC)ccc2OC)c1 (centres undefined) | -0.175 | ·
COc1cccc(C2CC(c3cccs3)=NN2C(=O)CSC2=NN3CCCC(=O)N=C3S2)c1OC (centres undefined) | · | -0.05
CC1CC(C)CN(S(=O)(=O)c2ccc(C(=O)NC(C)(C)C)cc2)C1 (centres undefined) | · | -0.15
COC(=O)c1cnc(SCc2c(Cl)cccc2Cl)n1C | -0.275 | -1.15
CN(CC(=O)Nc1nc2ccc(Cl)cc2s1)S(=O)(=O)c1ccc2[nH]c(=O)ccc2c1 | 0.375 | 1.85
CC(C)(C)CC(C)(C)NC(=O)c1c(F)cccc1F | -0.455 | -0.6
CCn1c(N)c(-c2csc(Nc3ccc(F)c(Cl)c3)n2)c(=O)[nH]c1=O | · | -0.25
Brc1ccccc1OCC1CCCN2CCCCC12 (centres undefined) | 1.75 | -1.35
CCc1nnsc1C(=O)Nc1sc2c(c1C(=O)NCC1CCCO1)CCCC2 (centres undefined) | · | 2.2

A second format for part of the listing above.
compound: CN(CC(=O)Nc1nc2ccc(Cl)cc2s1)S(=O)(=O)c1ccc2[nH]c(=O)ccc2c1
  CapD inh = 0.375
  AID504770 = 1.85
compound: CC(C)(C)CC(C)(C)NC(=O)c1c(F)cccc1F
  CapD inh = -0.455
  AID504770 = -0.6
compound: CCn1c(N)c(-c2csc(Nc3ccc(F)c(Cl)c3)n2)c(=O)[nH]c1=O
  CapD inh = ·
  AID504770 = -0.25
compound: Brc1ccccc1OCC1CCCN2CCCCC12 (centres undefined)
  CapD inh = 1.75
  AID504770 = -1.35
